# Ba CapD inh: CapD enzyme inhibition; purified CapD enzyme, fluorescence intensity read-out; hits give low values; some hits fall short of the stated cut; z-score (concentration not given with the values); actives 0.23% (n = 140,000);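 active = z-score under -4 in either of two replicates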;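 also: stock transfer was 100 nL into about 40 µL; score is relative to mean and spread of the plate; one replicate is shown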
# AID504770: E. coli YBA685 growth inhibition, screen for V. cholerae RctB inhibitors. E. coli YBA685 rctB-dependent plasmid, OD600 growth, 3 h; hits give low values. actives 0.27% (n = 130,000). z-score (concentration not given with the values). AID 504770;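 active = z-score under -2 on both plates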;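 also: wells of about 30 µL received 100 nL stock; score is relative to mean and SD of the test wells; the first replicate is given; strong numbers were not always called active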
# * hit, by the source's call; . = no result given.
SMILES,Ba CapD inh,AID504770
CCC(C)C(=O)N1c2cc(C)ccc2-c2c(ssc2=S)C1(C)C (stereo not given),0.82,.
COc1ccc(C2=NOC(C(=O)Nc3ccc(C#N)cc3)C2)cc1 (stereo not given),-0.63,0.05
c1ccc2c(c1)nc(NC1CCCCC1)c1nnnn12,16,-3.4
O=c1cc(-c2ccccc2)[nH]c(=S)[nH]1,-0.63,0.55
COCCCNC(=O)CSc1nc2ccccc2c(=O)n1CC1CCC(C(=O)NCCc2ccccc2)CC1 (stereo not given),-0.41,.
C=CCn1cc(C(=O)NCC2CCCO2)c(=O)c2cc(S(=O)(=O)N(CC)CC)ccc21 (stereo not given),-0.86,-0.75
COc1c2c(nc3occc13)C(CCC(C)(C)O)(OC)C(O)CC2 (stereo not given),0.36,-0.8
O=C(O)C12CCC(C(=O)O)(CC1=O)C(=O)C2,-1.3,2.3
O=C(NCCO)Nc1c[nH]c2c(Cl)cccc2c1=O,.,0.5
CSC1=NCCN1C(=O)Cc1ccccc1,.,0.6
FC(F)(F)c1cccc(NC(=S)NCc2cccnc2)c1,-0.065,.
Cc1cccn2c(=O)c3cc(C(=O)NCC4CCCO4)c(=N)n(CCN4CCOCC4)c3nc12 (stereo not given),35,1
CC(C)(C)C(=O)n1cc(-c2ccncc2)c(-c2ccc(C(F)(F)F)cc2)n1,-0.47,.
O=C(OCC1CCCCN1Cc1ccncc1)N1CCN(c2cccc3[nH]ccc23)CC1 (stereo not given),1,.
COc1ccc2nc(SCC(=O)Nc3ccc(Cl)c(C(=O)O)c3)[nH]c2c1,-1.1,.
CCOC(=O)N1CCN(C(=O)c2ccc3c(=O)n(CC4CCCO4)c(=S)[nH]c3c2)CC1 (stereo not given),0.56,-0.75
O=C1c2ccccc2C(O)(c2ccccc2)N1c1ccc(N2CCOCC2)cc1 (stereo not given),-0.61,2.1
Cc1ccc(S(=O)(=O)Nc2ccc(O)c(Sc3ncn[nH]3)c2)cc1,-0.29,0.2
Cc1ccccc1N1C(=O)c2ccccc2NC1c1ccncc1 (stereo not given),.,-1.1
Cc1nc(SCC2=C(C(=O)OC(C)C)C(c3ccc(Cl)cc3)C(C#N)=C(N)O2)c(C#N)c(C)c1C (stereo not given),0.065,.
CC(C)(C)NC(=O)c1cc2ccccc2oc1=O,32,0.3
CC(C)(C)NC(=O)CCCc1nc(-c2ccccc2)no1,-1.4,-0.45
Cc1cc(C)nc(NS(=O)(=O)c2ccc(NC(=O)CSc3nc(C)cc(C)n3)cc2)n1,0,.
Cc1nn(C)c2ncc3c(=O)n(Cc4ccccc4Cl)n(C)c3c12,0.9,0.15
O=C1/C(=C/N2CCCCC2)Nc2ccccc21,-0.25,-0.65
CCOC(=O)CN1CC23C=CC(O2)C(C(=O)NC2CCCCCC2)C3C1=O (stereo not given),-0.12,1.2
O=C(N=C1N=C2N=CC=CN2Cc2ccccc21)C1CCCCC1,.,-0.55
O=c1cccc2n1CC1CC2CN(c2ccc3nnc(-c4ccccc4)n3n2)C1 (stereo not given),0.71,-0.25
CCOC(=O)C1=C(C)N=c2s/c(=C\c3cc(OC)ccc3OC)c(=O)n2C1c1ccc(OC)c(OC)c1 (stereo not given),-0.12,.
CCOC(=O)C1=C(N)Oc2ccc3ccccc3c2C1c1ccc(C)cc1 (stereo not given),-0.24,.
COc1ccc(-c2cc(C(F)(F)F)n3nc(-c4ccccc4)cc3n2)cc1,0.45,.
COC(=O)c1c(C)oc2ccc(N(C(=O)c3ccncc3)S(=O)(=O)c3ccccc3)cc12,-3.8,.
CCn1c(=S)sc2c(=O)[nH]c(-c3ccc(OC)c(O)c3)nc21,-0.45,-0.45
CC(C)NC(=O)c1ccc2c(c1)[nH]c(=S)n1c3ccccc3nc21,1.5,.
COc1ccc(CNC(=O)COC(=O)C2=COCCO2)cc1,.,-0.1
Cc1nc2ccc(S(=O)(=O)CCC(=O)N3CCN(Cc4ccccc4)CC3)cc2s1,-0.23,1.9

# In the list so far, 5 contain two or more sulfur atoms.
SMILES,Ba CapD inh,AID504770
CCC(C)C(=O)N1c2cc(C)ccc2-c2c(ssc2=S)C1(C)C (stereo not given),0.82,.
Cc1ccc(S(=O)(=O)Nc2ccc(O)c(Sc3ncn[nH]3)c2)cc1,-0.29,0.2
Cc1cc(C)nc(NS(=O)(=O)c2ccc(NC(=O)CSc3nc(C)cc(C)n3)cc2)n1,0,.
CCn1c(=S)sc2c(=O)[nH]c(-c3ccc(OC)c(O)c3)nc21,-0.45,-0.45
Cc1nc2ccc(S(=O)(=O)CCC(=O)N3CCN(Cc4ccccc4)CC3)cc2s1,-0.23,1.9

# Other compounds follow:
SMILES,Ba CapD inh,AID504770
COc1ccc2cc(C3=CC(c4ccc(Br)cc4)n4ncnc4N3)ccc2c1 (stereo not given),3.6,.
CCOc1cc2[nH]c(=O)n(CCCN3CCCC3=O)c(=O)c2cc1OCC,11,0.2
COc1cc2[nH]c(=S)nc(NC3CCCCCC3)c2cc1OC,0.61,-0.6
CCOc1ccc(NC(=O)CCNC(=O)c2cn(-c3cccc(OC)c3)c(=O)c3ccccc23)cc1,4.5,-0.95
COc1cc(-c2cc(N)n(S(=O)(=O)c3ccccc3)n2)cc(OC)c1OC,-0.33,0.35
O=C(NC(Cc1ccccc1)C(=O)N1CCC1)c1ccccc1 (stereo not given),.,-0.85
CCN(CC)S(=O)(=O)c1ccc(C(=O)Nc2c3c(nn2-c2cc(C)cc(C)c2)CSC3)cc1,0.26,.
Cc1cc(C)c(S(=O)(=O)N2CCOCC2)cc1C,-0.61,-0.1
O=C(Cn1ncc2c(=O)oc3ccccc3c21)N1CCCc2ccccc21,-0.05,-0.6
O=S(=O)(Nc1ccc(F)cc1)c1ccc(-n2cccn2)cc1,-0.21,0.25
COc1ccc(/C=C2\N=C(c3ccc(Cl)cc3)N(c3ccccc3Br)C2=O)cc1OC,-0.64,.
CCCCCCCCNC(=O)c1c[nH]c2ccc(S(=O)(=O)N(C)c3ccc(Br)cc3)cc2c1=O,1.7,.

# Some of the entries so far, tab-delimited:
smiles	Ba CapD inh	AID504770
COc1ccc(/C=C2\N=C(c3ccc(Cl)cc3)N(c3ccccc3Br)C2=O)cc1OC	-0.64	.
O=C(NC(Cc1ccccc1)C(=O)N1CCC1)c1ccccc1 (stereo not given)	.	-0.85
O=C(Cn1ncc2c(=O)oc3ccccc3c21)N1CCCc2ccccc21	-0.05	-0.6

# Continued:
SMILES,Ba CapD inh,AID504770
COc1ccc(-c2nnc(SCC(=O)NC(=O)NCc3ccco3)n2C(C)C)cc1,.,0.35
O=C(CN1CCN(Cc2ccc(F)cc2)C1=O)NC1CCCC1,-0.64,-0.5
Cn1c(C(=O)NCCCN2CCCC2=O)cc2ccccc21,0.34,.
COc1ccc(CC(NC(C)=O)C(=O)N2CCN(C(=O)Nc3ccc(C#N)cc3)CC2)cc1 (stereo not given),.,-0.85
COC(=O)c1cn(CC(=O)c2cc(C)n(C)c2C)c2ccccc12,.,-0.6
CCN(CC)S(=O)(=O)c1ccc(NC(C)CCc2ccccc2)nc1 (stereo not given),.,-0.7
CC(C)NC1=NCCS1,0.39,0
CCOC(=O)c1sc(=S)n(CCc2ccccc2)c1N,-0.88,.
COC(=O)c1cc(-c2c(C)oc3cc(OC(C)=O)ccc3c2=O)c(C)o1,.,0.15
CCCC(=O)c1ccc(OC)c(OC)c1,0.48,-0.5
COc1cccc(OCC(O)CN2CCC(CN3C(=O)c4cccc5cccc(c45)C3=O)CC2)c1 (stereo not given),76,.
COC(=O)c1sc2ccccc2c1NC(=O)c1ccc(Br)s1,3.1,-0.05

# Single records, as listed above.
# `COC(=O)c1cc(-c2c(C)oc3cc(OC(C)=O)ccc3c2=O)c(C)o1` is listed with Ba CapD inh = .; AID504770 = 0.15
# `CC(C)NC1=NCCS1` is listed with Ba CapD inh = 0.39; AID504770 = 0

# Carrying on:
SMILES,Ba CapD inh,AID504770
O=C1OC(NCc2cccnc2)(c2ccccc2)c2ccccc21 (stereo not given),0.41,0.2
COC(CNC(=O)c1sc2nc(-c3ccccc3)cn2c1C)OC,0.72,-0.25
CCOC(=O)Cn1c2ccccc2c2nc3ccccc3nc21,0.42,.
COc1ccc(C2(CCNCc3ccc(Cl)cc3)CCOC(C)(C)C2)cc1 (stereo not given),-0.81,.
NC(=O)COC(=O)CSc1cccc2cccc(Cl)c12,0.67,-0.1
CCCCC(=O)Nc1ccc(S(=O)(=O)N2CCCCC2c2cccnc2)cc1 (stereo not given),-0.29,.
COc1cccc(CNc2ncc(-c3ccccc3)n2C)c1,14,1.6
N#CC1=C(N)OC2=C(C(=O)CCC2)C12C(=O)Nc1ccccc12 (stereo not given),0.035,.
Cc1n[nH]c(C)c1NC(=O)CSc1ccc(F)cc1,.,0.25
N#Cc1ccc(S(=O)(=O)N2CCCC2CO)cc1 (stereo not given),-1.1,.
CC1(C)CC(=O)C2=C(C1)N(c1ccc(S(N)(=O)=O)cc1)C(N)=C(C#N)C2c1ccsc1 (stereo not given),-0.55,.
Cc1[nH]n(-c2ccccc2)c(=O)c1/C=C1\SC(=S)N(Cc2ccccc2)C1=O,-1.4,1.1
CC(Nc1nc(C(C)(C)C)cs1)=C(C#N)C#N,.,0.75
Cc1c(C#N)c(/N=C/c2c(O)[nH]c(=O)[nH]c2=O)n(C2CCCCC2)c1C,.,0.55
COc1ccc(-c2nnc(SCC(=O)c3ccc4c(c3)NC(=O)CO4)o2)cc1,.,0.1
O=C(O)CSCC(=O)Nc1cccc2c1CCCC2,0.42,-0.1
C/C(=N\OC(=O)Nc1c(-c2c(Cl)cccc2Cl)noc1C)c1ccco1,1.9,.
COc1ccc(CN2CCNCC2)cc1,.,-0.5
CCOc1ccc(NC(=O)CSc2nc3ccccc3n2S(=O)(=O)c2ccccc2)cc1,-0.61,.
O=C1CC(c2ccc(Cl)cc2)C2=C(CC(c3ccc(Cl)cc3)CC2=O)O1 (stereo not given),0.005,.
COc1ccc2nc(SCC(=O)Nc3ccc(OC)c(OC)c3)[nH]c2c1,0.02,.
COc1cc(C2C(C(=O)Nc3nc4ccccc4s3)=C(C)NC3=C2C(=O)CCC3)cc(OC)c1OC (stereo not given),43,.
Cc1cc(C)c(-n2c(SCC(=O)c3ccc(C#N)cc3)n[nH]c2=O)c(C)c1,-0.71,-0.6
CCCNC(=O)CCc1nnc2ccc(N3CCCC3)nn12,-1,1.4
CC(C)S(=O)(=O)c1cnc(N2CCCCC2)nc1N,-0.045,.
CCOc1cc(C2NC(=O)NC(C)=C2C(=O)OC(C)CC)cc(Br)c1O (stereo not given),-0.43,.
CC1(C)OC(=O)C(=CNc2ncccn2)C(=O)O1,-0.17,-0.1
C=CCn1c(-c2ccccc2)csc1=Nc1ccc(O)cc1,0.24,-0.45
O[C@@]1(c2ccccc2)C2C3CC4C5C3C1C5C(F)(F)C42 (stereo not given in full),0.49,-0.05
Cc1cccc(Nc2nc3nonc3nc2N/N=C/c2cc3c(cc2Br)OCO3)c1C,6.3,.
c1ccc(CSc2nnc(-c3ccccc3)o2)cc1,-0.42,-0.95
O=C(NCCc1ccccc1)c1ccc2c(c1)[nH]c(=S)n1c3ccccc3nc21,10,.
CC1(C)CC(=O)C2=C(C1)OC1=C(C(=O)CC(C)(C)C1)C2c1ccccc1OCc1ccc(Cl)cc1Cl,0.045,.
CC(=O)Nc1ccc(NC(NC(=O)c2ccco2)C(=O)c2ccc(Cl)cc2)cc1 (stereo not given),.,1.4
FC(F)(F)c1cc(-c2ccc(-n3cccc3)cc2)n[nH]1,3.5,-0.05
COCc1cc(C)c2c(n1)sc1c2nc(C)n2c3ccccc3nc12,38,1.6
COc1ccc(OCCn2c(=O)oc3ccccc32)cc1,60,-0.4
O=S(=O)(Nc1cccnc1)c1ccc(Oc2ccccc2)cc1,0.32,-0.4
Cc1cc(=O)[nH]c(=O)[nH]1,.,1.5
O=C(O)C(=Cc1ccc(-c2cccc(C(F)(F)F)c2)o1)C(=O)O,.,-0.1
COc1ccc(NS(=O)(=O)Cc2ccccc2)cc1,-0.29,0.45
O=C(CS(=O)c1cccc(C(F)(F)F)c1)Nc1ccccc1Cl (stereo not given),-0.07,.
COc1cc(/C=N/N(C)C)ccc1OC(=O)c1cccs1,.,0.1
CCOc1ccc(N2C(=O)/C(=C/c3ccc(OC)c(O)c3)N(C)C2=S)cc1,-1.8,0.4
Cc1ccc(-c2nn(C)c(=O)c3ccccc23)cc1S(=O)(=O)N1CCCC1,-0.055,0.75
CCOCC(=O)Nc1nnc(CC)s1,.,-1
COC(=O)c1cc(-c2ccc(/C=C3\C(=O)N(c4ccc(S(N)(=O)=O)cc4)N=C3C(F)(F)F)o2)ccc1Cl,0.85,.
CS/C(N)=N/N=C/c1ccc2c(c1)OCO2,-2.1,.
COc1ccc(C2=NN(S(C)(=O)=O)C(c3ccc(C)cc3)C2)cc1 (stereo not given),-0.58,-0.35
Cn1c(O)c(N=Nc2c(Cl)cc(C(F)(F)F)cc2Cl)c2ccccc21,-0.74,.
CCOC(=O)CNc1nc(C(C)(C)C)nc2c1nnn2Cc1ccccc1,.,-0.25
N=C1C(c2nc3ccccc3c(=O)[nH]2)=C(O)CN1c1ccccc1,22,2.9
CCOc1ccc2nc(N3CCCC(C(=O)NCCCN4CCN(CC)CC4)C3)sc2c1 (stereo not given),0.2,-0.35
COC(=O)c1c(N2C(N)=C(C#N)C(c3ccsc3)C3=C2CCCC3=O)sc2c1CCCC2 (stereo not given),-0.42,.
CCC(=O)N1c2ccccc2NC2=C(C(=O)CC(C)(C)C2)C1c1ccc(-c2ccc([N+](=O)[O-])cc2)o1 (stereo not given),-0.21,.
CNC(=S)N/N=C/c1ccc(OC)c(Br)c1,-1.7,.
C=CCN(C(=O)c1ccc2snnc2c1)c1ccccc1,-0.48,-0.75
Cc1cccc(C(=O)OCC(=O)Nc2ccc(Cl)cc2)c1,0.37,0.05

# Copied from the list:
# For AID504770, N=C1C(c2nc3ccccc3c(=O)[nH]2)=C(O)CN1c1ccccc1 has 2.9
# For Ba CapD inh, CCC(=O)N1c2ccccc2NC2=C(C(=O)CC(C)(C)C2)C1c1ccc(-c2ccc([N+](=O)[O-])cc2)o1 (stereo not given) has -0.21
# For Ba CapD inh, Cn1c(O)c(N=Nc2c(Cl)cc(C(F)(F)F)cc2Cl)c2ccccc21 has -0.74

# Screening results: PubChem BioAssay, ICCB-Longwood Screening Facility, Harvard Medical School
